Compound activity (PubChem)
Ba CapD inh: Bacillus anthracis CapD inhibitors, primary screen, biochemical, fluorescence intensity; purified CapD enzyme, fluorescence intensity read-out; stronger effect = lower value; some hits fall short of the stated cut; z-score (test concentration not listed); actives 0.23% (n = 140,000);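 active = z-score under -4 in either of two replicates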;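 also: stock transfer was 100 nL into about 40 µL; score is relative to mean and spread of the plate; one replicate is shown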
AID504770: growth inhibition of E. coli YBA685, primary screen, V. cholerae RctB inhibitors; AID 504770, 2011; z-score (test concentration not listed); actives 0.27% (n = 130,000); E. coli YBA685 rctB-dependent plasmid, OD600 growth, 3 h; stronger effect = lower value;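 active = z-score under -2 on both plates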;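 also: wells of about 30 µL received 100 nL stock; score is relative to mean and SD of the test wells; the first replicate is given; strong numbers were not always called active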
* = called active by the depositor; . = not tested or not shown.

structure	AID504770	Ba CapD inh
CCOc1ccc2ccccc2c1C(=O)N[C@@H]1C(=O)N2[C@@H]1SC(C)(C)[C@@H]2C(=O)O	.	0.275
COc1ccc(N2CCN(c3nc(N)c4c(N)nc5c(c4c3C#N)CC(=O)N5C)CC2)cc1	-0.05	.
C=CCc1ccc(OCCCn2ccnc2)c(OC)c1	0	.
N#C/C(=C\c1ccc(Cl)cc1)c1ccccc1	0.55	2.35
COc1ccc2ccccc2c1S(N)=O (centres undefined)	0.1	-0.065
CC(=O)Nc1ccc(S(=O)(=O)N2CCN=C2c2ccccc2)cc1	0.05	0.115
CCOC(=O)c1nn(-c2cccc(Cl)c2)cc(Sc2ccc(Cl)cc2)c1=O	-0.3	9.92
COc1ccc(CCNC(=O)Cn2c(=O)[nH]c3ccsc3c2=O)cc1OC	-0.1	-0.4
C=CCn1c(=S)sc2c(Sc3nnc(-c4ccc(Cl)cc4)o3)ncnc21	2.35	-0.585
O=C1/C(=C/c2ccc(-c3ccc([N+](=O)[O-])cc3)o2)C=C(c2ccccc2)N1c1ccccc1Br	.	-0.57

Next section.
structure	AID504770	Ba CapD inh
O=C(/C=C/N1C(=O)c2ccccc2C1=O)c1ccccc1	0.05	0.23
COc1ccc(-n2cnc3cc(NC(=O)c4cccs4)ccc32)cc1	0.35	-0.89
Brc1ccc(-c2cc3n(c2)CCc2ccccc2-3)cc1	0.15	5.89
Cc1c(C(=O)NCCN2CCOCC2)oc2ccc3c(c12)C(O)CC1(CCCCCC1)O3 (centres undefined)	-0.5	37.4
COc1ccc(C2C3=C(CC(c4ccco4)CC3=O)Nc3ccccc3N2C(=O)C(F)(F)F)cc1 (centres undefined)	.	0.145
O=C1CCC(=O)N1CC(=O)N1c2ccccc2Sc2ccc(C(F)(F)F)cc21	.	0.06
C=CCn1c(=S)sc2c(N3CCN(c4ccccc4)CC3)ncnc21	0.25	-0.47
CCCCN(c1nc(C)cc(OC)n1)S(=O)(=O)c1ccccc1Cl	.	0.045
CC1CCC(C(C)C)C(NC(=O)c2ccco2)C1 (centres undefined)	-0.45	1.42
COC(=O)c1sc2nc[nH]c(=O)c2c1CC(=O)O	1.7	.

(next part)
structure	AID504770	Ba CapD inh
COC(=O)c1ccccc1NC(=O)c1ccc(Cn2cc(Cl)cn2)cc1	0.25	-1.27
O=S(=O)(Cc1ccccc1)NC1CCCCC1	0.15	0.52
O=C(N=c1scc(-c2ccccc2)n1-c1ccccc1)c1ccco1	1.4	.
CN(C)C(=O)Oc1cccc(NC(=O)c2c(F)cccc2F)c1	2.5	-0.335
O=C(CN(c1ccccc1)S(=O)(=O)c1ccccc1)Nc1ccc(F)cc1	.	-0.45
CC(=O)Oc1ccc(/C=C2/N=C(c3cccc4ccccc34)OC2=O)cc1OC(C)=O	.	-0.475
COc1cc(C2NC(C(=O)O)Cc3[nH]cnc32)cc(Br)c1OCc1ccccn1 (centres undefined)	1.4	.
N#CCCn1cc(/C=N/O)c(-c2ccccc2)n1	0.4	0.16
CC(=O)Nc1ccc2nc(NC(=O)c3ccc(-c4ccccc4)cc3)oc2c1	0.1	.
CCN(C(=O)Cn1nnc(-c2ccccc2)n1)c1ccccc1	0.9	0.195

Next compounds follow.
structure	AID504770	Ba CapD inh
Cc1nc(Nc2ccc(S(=O)(=O)N3CCCC3)cc2)c2nnn(Cc3ccccc3)c2n1	-0.7	.
O=C(CN1C(=O)CC(c2ccccc2)Sc2ccccc21)NCC1CCCO1 (centres undefined)	2.95	-0.855
CCCCN1C(=O)CCC(C(=O)O)C1c1cccs1 (centres undefined)	-0.3	-0.58
O=C(OCCN1CCN(Cc2cc3ccccc3o2)CC1)N1CCN(c2nc(-c3ccccc3)ns2)CC1	.	-0.145
CC1Sc2cc(S(=O)(=O)N3CCC(Cc4ccccc4)CC3)ccc2NC1=O (centres undefined)	-0.35	-0.565
N#CC1=C(N)Oc2n[nH]c(-c3ccncc3)c2C12C(=O)Nc1ccccc12 (centres undefined)	.	-0.54
O=C(O)C1CSC(c2ccco2)=N1 (centres undefined)	0.3	.
O=C(NCCO)c1cccc2c1-c1ccc(I)cc1C2	-0.3	-0.355
O=C(Oc1ccc2c(c1)OCO2)C12CC3CC(CC(C3)C1)C2	-0.85	.
O=C(Cn1c(=O)c2cccn2c2cccnc21)N1CCCC1	0.15	0.43

(list continues)
structure	AID504770	Ba CapD inh
CCOC(=O)/N=C(/c1ccc(Cl)cc1)c1cc2ccccc2cn1	0.1	-1.25
CN(Cc1ccccc1)C(=O)Cn1c(=O)oc2ccccc21	1.15	.
CCOC(=O)/C=C1\SCC(=O)N1Cc1cc(Cl)cc2c1OCOC2	-0.6	.
COc1ccc(Cl)cc1-n1c(N)c(C(N)=O)sc1=S	.	-1.62
CCOCC(=O)Nc1nnc(C2CCCCC2)s1	-0.35	-0.34
O=C(COc1ncnc2ccccc12)NCCc1ccccc1	0.55	0.145
COCCCNC(=O)c1cc(C(=O)c2ccccc2Br)c[nH]1	.	-0.26
Cc1ccc2[nH]c3c(c2c1)CCCC3C#N (centres undefined)	-0.55	0.015
CN1CCC(N(C(=O)Cc2ccc(S(C)(=O)=O)cc2)C2CC2)CC1	.	-0.45
CCNc1nc(-c2cccnc2)nc2ccccc12	0.15	.

Next section:
structure	AID504770	Ba CapD inh
CN(C)S(=O)(=O)c1cccc(COC(=O)c2cccnc2SCC(=O)Nc2ccc3c(c2)OCO3)c1	0.5	.
Nc1ccccc1SC(CC(=O)c1ccccc1)c1ccc2c(c1)OCO2 (centres undefined)	.	-0.275
O=C(c1ccccc1)N1CCN(c2ccc(N3CCOCC3)nn2)CC1	-0.2	.
O=C(NCCC1=CCCCC1)c1cc(Sc2ccc(F)cc2)nc2ccccc12	.	0.485
O=C(NC1CCCCC1)NC1CCN(S(=O)(=O)c2cccc(Cl)c2)CC1	-0.05	.
CC1Cc2ccc(F)cc2CN1C(=O)c1ccc(COc2ccccc2Br)o1 (centres undefined)	-0.05	0.02
S=P(Nc1ccccc1)(Nc1ccccc1)Nc1ccccc1	.	-0.19
COc1ccc(Sc2nn3nnnc3c3ccccc23)cc1	0.3	0.07
COc1ccc(Oc2c(C)oc3cc(OC(=O)N4CCOCC4)ccc3c2=O)cc1	-0.6	0.14
C=CCn1c(SCC(=O)NCCN2CCOCC2)nc2sc(C)c(C)c2c1=O	.	-0.86

Additional structures.
structure	AID504770	Ba CapD inh
O=C1C=C(C(F)(F)F)c2ccc(NC3CCCCC3)c3cccc1c23	-0.75	-1.29
COc1ccc(/C=N/OCC(=O)N2CCOCC2)cc1	-0.65	0.075
Cc1cc(OC(C)C)nc(N)n1	-0.35	0.295
CC(C)C(=O)N=C1c2ccccc2CN1c1ccc(C#N)cc1	0.45	0.59
COc1ccccc1C1CCN(Cc2cn[nH]c2-c2ccccc2)CC1	-0.4	0.11
Cc1nn(C)c(NCCCN(C)C)c1[N+](=O)[O-]	.	-1.3
CC1CC(=O)C2=C(C1)Nc1ccccc1N=C2 (centres undefined)	2	-2.08
CCOC(=O)Cc1nnc2c(Nc3ccccc3F)nc3nonc3n12	.	-1.25
COc1ccc2oc(=O)c(C(=O)N3CCc4ccccc4C3)cc2c1	.	14.5
CCOc1ccc(C(=O)Nc2c3c(nn2-c2ccc(Cl)cc2)CS(=O)(=O)C3)cc1OCC	.	0.21

Additional results follow.
structure	AID504770	Ba CapD inh
Cc1csc(Nc2ccccc2)[n+]1CCO	-0.9	1.73
O=c1ccc(-c2ccc(Br)s2)n[nH]1	-0.1	0.355
O=C(c1ccccc1Cl)N1CCc2c([nH]c3ccccc23)C1c1ccc2c(c1)OCO2 (centres undefined)	.	-0.51
COc1cccc(Nc2nnc(Cc3cccnc3)c3ccccc23)c1	-0.4	-1.17
CC(C)(C)c1cc2cc(NCc3ccccn3)ccc2[nH]1	.	-0.385
COc1cc(Cn2cnnn2)ccc1O	0.3	0.06
O=C1CNC(c2ccccc2)c2cc(Br)ccc2N1 (centres undefined)	-1.1	-0.34
O=c1/c(=C/c2ccc(-c3cc([N+](=O)[O-])ccc3Cl)o2)sc2nc3ccccc3n12	.	-0.295
Cc1cc(C)n2nc3nc(N4CCCC4)nc(-c4ccccc4)c3c2n1	0.3	0.96
COc1cccc2cc(C(=O)Nc3ccc(S(=O)(=O)N4CCOCC4)cc3)c(=O)oc12	0.1	.

(cont.)
structure	AID504770	Ba CapD inh
COc1cc(C(=O)NCC#N)cc(OC)c1OC	0.15	.
CC1(C)CC(=O)C2=C(C1)c1c(ccc3ccccc13)NC2c1ccc(OCC(=O)O)cc1 (centres undefined)	.	53.1
CC(=O)Nc1cc(C)c2c(=O)oc3ccccc3c2n1	1.15	5.45
O=C(NCCCN1CCOCC1)c1cc2ccccc2o1	-0.35	0.895
Cc1ccc(NC(=O)c2nc3ncccn3n2)cc1	-0.3	.
O=C(N/N=C/c1ccc2c(c1)OCO2)c1csc(CS(=O)(=O)Cc2ccco2)n1	.	3.19
O=C(CCSc1nnc2scc(-c3ccc(Cl)cc3)n12)NCCc1ccccc1	0.65	-0.61
COc1ccc(C(=O)Cc2ccc3c(c2)OCCO3)c(O)c1	-0.25	1.73
Cc1nc2c3ccccc3nc(NNC(=O)CCC(=O)N3CCC(C)CC3)n2n1	0.05	-0.69
COc1ccc2c(c1)CCc1c(C(=O)NCCc3ccccc3)noc1-2	1.85	0.585

(cont.)
structure	AID504770	Ba CapD inh
COC(=O)/C=C1\SC(=Nc2ccc(Cl)cc2)N(c2ccc(Cl)cc2)C1=O	2.1	0.2
CC(C)N=Cc1c(O)[nH]c2ccccc12	-0.65	-0.46
CC1CCCCC1NC(=O)c1cccc(NS(=O)(=O)c2ccc(Br)cc2)c1 (centres undefined)	0.35	0.155
CN1C2CCC1CC(=NOC(=O)c1ccc([N+](=O)[O-])cc1)C2	.	0.395
Cc1cc(=O)[nH]c(SCC(=O)Nc2ccc(Br)cc2)c1C#N	-0.75	0.065
Cc1cc(C(F)(F)F)c(C#N)c(SCC(=O)C23CC4CC(CC(C4)C2)C3)n1	.	-0.21
CN1CCN(c2ccc(NS(=O)(=O)c3cccc(C(F)(F)F)c3)cc2)CC1	-0.45	0.575
CC(C)S(=O)(=O)c1cscc1Cl	0.15	-0.205
CCOc1ccccc1NC(=O)c1ccco1	0.2	0.05
O=C(O)CSc1cnc2ccccc2n1	-0.9	.

The listing continues:
structure	AID504770	Ba CapD inh
O=c1[nH]c(NCCO)nc2sc3c(c12)CCCC3	-0.2	.
CCOc1cc(C2C(C(=O)N3CCOCC3)=C(C)NC3=C2C(=O)CC(C)(C)C3)cc([N+](=O)[O-])c1O (centres undefined)	.	-0.69
Cn1nc(-c2cccs2)cc1N	-0.6	-0.455
CC1Cc2cc(C3(O)C(=O)c4ccccc4C3=O)ccc2N1 (centres undefined)	-0.45	-1.01
Cn1c(SCC(=O)N2CCOCC2)nnc1-c1ccc2ncccc2c1	.	0.53
O=C(NCCSc1c[nH]c2ccccc12)c1ccc(S(=O)(=O)N2CCCC2)cc1	-0.4	2.22
CCN1CCCC1CNC(=O)c1ccc(N2CCCC2=O)cc1 (centres undefined)	-0.15	-0.405
CCOC(=O)c1ccc(NC(=O)C2CCN(Cc3cnn(-c4ccccc4)c3-n3cccc3)CC2)cc1	-1.15	-0.29
CCCc1cc(=O)[nH]c(SCc2c(Cl)cccc2Cl)n1	.	0.375
Oc1ccccc1C=Nc1ccc(OC(F)(F)C(F)F)cc1	-0.75	-0.12

Next section
structure	AID504770	Ba CapD inh
O=C(Nc1ccc(F)c(F)c1)C1CCCN1S(=O)(=O)c1ccc(F)cc1 (centres undefined)	.	0.285
O=C(Nc1c(-c2ccccc2)nc2ncccn12)c1ccccc1	0.2	.
Cc1oc(-c2ccc(C(=O)N3CCCCC3)cc2)nc1COc1ccccc1	0.5	0.78
Cc1cc(C)n(C(=O)c2cccc(Cl)c2)n1	-0.15	.
COc1ccccc1-n1c(=O)c2c3c(sc2n2c(=S)[nH]nc12)CCC3	0.4	16.5
COc1ccc(OCCC(=O)NNC(=S)Nc2cccc(OC)c2)cc1	.	0.04
O=c1[nH]ncc(NCc2ccc(Cl)cc2)c1Cl	0	.
Cn1c(COC(=O)c2sc3ccccc3c2Cl)nc2ccccc21	0.3	-0.36
CCN1CCN(c2ncc3c(n2)CC(c2cc(OC)c(OC)c(OC)c2)CC3=O)CC1 (centres undefined)	-0.6	-0.665
O=c1c(C=NCCN2CCOCC2)c(C(F)(F)F)[nH]n1-c1nc2ccccc2s1	-0.75	0.02

Six compounds already listed, ordered by formula weight, lowest first.
structure	AID504770	Ba CapD inh
Cc1cc(OC(C)C)nc(N)n1	-0.35	0.295
O=c1ccc(-c2ccc(Br)s2)n[nH]1	-0.1	0.355
CN1C2CCC1CC(=NOC(=O)c1ccc([N+](=O)[O-])cc1)C2	.	0.395
CC(=O)Nc1ccc(S(=O)(=O)N2CCN=C2c2ccccc2)cc1	0.05	0.115
CC1Sc2cc(S(=O)(=O)N3CCC(Cc4ccccc4)CC3)ccc2NC1=O (centres undefined)	-0.35	-0.565
O=C(c1ccccc1Cl)N1CCc2c([nH]c3ccccc23)C1c1ccc2c(c1)OCO2 (centres undefined)	.	-0.51

Other results follow.
structure	AID504770	Ba CapD inh
Cc1ccc(Cc2nc3c(nnn3Cn3nnc(-c4ccc(Cl)cc4)n3)c(=O)[nH]2)cc1	-0.5	0.07
CCCn1cnc2cc(NCc3ccc(Br)cc3)ccc21	0.55	12.7
Cc1cc2cc(CNC(=O)c3ccc(S(=O)(=O)N4CCCC4)cc3)ccc2[nH]1	-0.75	-1.05
Cc1nc2ccc(Br)cc2c(=O)n1-c1cc(C(F)(F)F)ccc1N1CCOCC1	-0.7	-0.08
